# Compound activity as filed in PubChem BioAssay.
# VDR inhibitor: Inhibitors of the vitamin D receptor (VDR): qHTS; Vitamin D3 receptor (Homo sapiens), P11473; VDR-SRC2-3 peptide fluorescence polarization, 2 h; 0.93% of 400,000 active; Potency, µM, without a hit: max response, negative = inhibition, most hits filed as inhibitors; AID 504847, 2011; active = well fitted inhibition curve with a large enough effect; inconclusive = small, poorly fitted or top-dose-only effect, or another doubt; inactive = no such curve, though single readings can be large or run the other way; note: series mostly up to about 120 µM
# Target sequence (P11473 whole entry, looked up): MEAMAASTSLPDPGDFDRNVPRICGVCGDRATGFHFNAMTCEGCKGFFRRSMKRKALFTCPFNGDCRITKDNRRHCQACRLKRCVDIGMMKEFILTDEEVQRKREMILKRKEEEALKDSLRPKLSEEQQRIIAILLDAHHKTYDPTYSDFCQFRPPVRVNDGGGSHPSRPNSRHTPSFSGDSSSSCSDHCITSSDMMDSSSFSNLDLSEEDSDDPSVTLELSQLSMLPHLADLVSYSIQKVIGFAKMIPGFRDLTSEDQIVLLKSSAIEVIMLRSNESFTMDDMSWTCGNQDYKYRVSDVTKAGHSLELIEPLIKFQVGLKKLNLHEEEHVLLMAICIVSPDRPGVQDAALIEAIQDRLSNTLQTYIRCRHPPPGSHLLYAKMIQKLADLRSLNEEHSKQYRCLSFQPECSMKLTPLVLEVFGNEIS
#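 VDR–SRC2-3 interaction, FP format. Cmpds 23 nl via pintool, brief spin, 2 h ambient incubation.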
# The depositor's hits bear a star; ? = inconclusive; & = joins results of further samples. % is set by controls: 0 for no effect and ±100 for the full control effect; potency is the fitted concentration of half-maximal effect. The list is partial; the hit share may differ from the screen's.
# The opening 2 records as a preview:
SMILES,VDR inhibitor
O=C(Nc1ccc(F)cc1F)C1(c2cccs2)CCOCC1,-4%
CCOC(=O)c1c(C)n(-c2ccccc2)c2ccc(OC(=O)c3c(F)cccc3F)cc12,-3%

# The list itself, previewed entries included:
SMILES,VDR inhibitor
O=C(Nc1ccc(F)cc1F)C1(c2cccs2)CCOCC1,-4%
CCOC(=O)c1c(C)n(-c2ccccc2)c2ccc(OC(=O)c3c(F)cccc3F)cc12,-3%
CC1=C(C(=O)Nc2cc(C)ccn2)C(c2ccc(C)cc2)C2=C(CCCC2=O)N1 (stereo not given),-1%
Cc1cc(NC(=O)CCC(=O)N(CC(=O)NC2CCCC2)c2ccc(F)cc2)no1,1%
CCN1CCCC1CNCc1cccc(OC)c1OCc1ccccc1F (stereo not given),-9%
Cc1ccccc1C(=O)Nc1ccc(CN2CCOCC2)cc1,15%
CC(=O)Oc1ccccc1-c1nc(/C=C/c2ccccc2)no1,-24%
O=C(Nc1cccc2ccccc12)N1CCOCC1,5%
COc1ccc(CC(=O)Nc2cccc(C)n2)cc1OC,-10%
COC(=O)NNC(=O)c1ccc(Cl)cc1Cl,-8%
O=C1Nc2ccccc2Oc2cc(Oc3ccccc3)ccc21,1%
COc1ccc(-c2nn(-c3ccccc3)cc2C(=O)Nc2ccc(C(=O)O)cc2)cc1,-20%
CCOC(=O)c1cnc2ccccc2c1Nc1cccc(C(=O)O)c1,13%
CC(C)Oc1ccc(C(=O)N2CCN(c3nc4c(F)cc(F)cc4s3)CC2)cc1,-2%
CC(=O)N1CCC(O)(c2cccc(C(F)(F)F)c2)CC1,13%
CCCNc1nc2c(c(=O)n(C)c(=O)n2C)n1CCC(C)C,-11%
C=CCn1c(-c2cccc3ccccc23)n[nH]c1=S,2%
Cc1csc(NC(CO)c2nc3ccccc3n2CCOCCO)n1 (stereo not given),-21%
O=C(NCCc1csc(-c2ccc(F)cc2)n1)c1cccc(F)c1,18%
Cc1nn(C2CC(O)C(O)C(CO)O2)c(=O)[nH]c1=O (stereo not given),-17%
COc1ccc(C(=O)N2CCN(C(=O)c3ccncc3)CC2)cc1,-1%
COc1ccccc1NC(=O)Cn1c(=O)oc2cc(S(=O)(=O)N3CCCC3)ccc21,16%
O=S(=O)(/C=C/c1ccccc1)NCc1ccccc1Cl,-16%
CCNc1nc(Oc2ccc(C(=O)OCC)cc2)nc(SC)n1,1%

# In another format: 2 of the compounds above.
SMILES | VDR inhibitor
CCNc1nc(Oc2ccc(C(=O)OCC)cc2)nc(SC)n1 | 1%
CC(C)Oc1ccc(C(=O)N2CCN(c3nc4c(F)cc(F)cc4s3)CC2)cc1 | -2%

# New compounds follow.
SMILES,VDR inhibitor
O=C(Nc1ccc(SC(F)(F)F)cc1)c1ccccn1,-4%
CCOC(=O)Cc1csc(NC(=O)CN2C(=O)c3ccccc3C2=O)n1,-9%
COc1ccc(C2=NS(=O)(=O)N(C)C(C(=O)N3CCOCC3)=C2)cc1,-11%
COc1ccc(CCNC(=O)Cn2nnc(-c3cccc(OC)c3OC)n2)cc1OC,1%
CCCCNC(=O)c1ccc2c(c1)NC(=O)C(CS(=O)(=O)Cc1ccc(C)cc1)N2 (stereo not given),2%
O=C(COC(=O)CNC(=O)c1ccc(Cl)cc1)Nc1ccc2c(c1)OCCO2,-5%
O=C(NCC(=O)N1CCC2(CC1)NCCc1[nH]cnc12)c1ccccc1F,-8%
CCn1c(=O)c(C(=O)NCCc2ccccc2)c(O)c2ccccc21,-3%
O=C(c1ccc(F)cc1)n1nc(-c2cccnc2)nc1NCc1ccccc1,7%
CCC(NC(=O)Cn1cnc2c(=O)n(C)c(=O)n(C)c21)c1ccccc1 (stereo not given),-9%
Cc1cc(O)c(C(c2cccc(F)c2)N2CCC(C)CC2)c(=O)n1Cc1ccco1 (stereo not given),0%
COc1ccc(/C=N/n2c(C)nc3ccccc3c2=O)cc1,5%

# Three of these compounds in another layout:
canonical_smiles | VDR inhibitor
O=C1Nc2ccccc2Oc2cc(Oc3ccccc3)ccc21 | 1%
COc1ccc(-c2nn(-c3ccccc3)cc2C(=O)Nc2ccc(C(=O)O)cc2)cc1 | -20%
CCOC(=O)c1cnc2ccccc2c1Nc1cccc(C(=O)O)c1 | 13%

# (cont.)
SMILES,VDR inhibitor
COc1ccc(C)cc1N(C(=O)c1cccc(F)c1)c1nc2ccccc2s1,-12%
O=C(c1cc2c(ccc3ccccc32)o1)N1CCN(c2ncc(C(F)(F)F)cc2Cl)CC1,17%
COc1ccc2c(=O)cc(-c3cccnc3)oc2c1OC,-24%
CCn1c(SCC(=O)NC2CCCc3ccccc32)nnc1-c1ccncc1 (stereo not given),5%
CCOc1ccc(-n2c(SCC(=O)Nc3ccccc3C)n[nH]c2=O)cc1,12%
CCOCCn1c(CN2CCCCC2)nc2c1c(=O)n(C)c(=O)n2C,-8%
Cc1cc(C(=O)COC(=O)c2ccc(N)c([N+](=O)[O-])c2)c(C)n1-c1ccc2c(c1)OCO2,-6%
Oc1ccc2c(c1)C1CCCC1(N1CCOCC1)O2 (stereo not given),-13%
CCC(=O)N1CCc2cc(S(=O)(=O)NCCC(=O)Nc3cc(C)cc(C)c3)ccc21,-8%
COC(=O)C1=CN(CC2CCCO2)C=C(C(=O)OC)C1c1cccc(O)c1 (stereo not given),13%
C=CCN1C(=O)CSC1=Nc1ccc(O)cc1,-8%
Cc1cccc(CN2CCN(CC(=O)N3CCCC3)C2=O)c1,2%
COc1ccc(CCNC(=O)c2ccc3c(c2)OCO3)cc1,-9%
Cc1cc(CN2CCC(n3nccc3NC(=O)c3ccccc3Cl)CC2)cc(C)c1O,-12%
O=C(NC1(C(F)(F)F)NC(=O)N(C2CCCC2)C1=O)C1CC1 (stereo not given),-1%
CCOCCn1ccc2c(OCC(=O)Nc3cc(C)cc(C)c3)cccc2c1=O,1%
N#Cc1c(SCC(=O)O)nc(N2CCCCC2)c2c1CCCC2,-4%
COc1cccc(-n2cn[nH]c2=S)c1,-14%
Cn1c(CNc2ccccc2)cc(=O)n(C)c1=O,-7%
COCCCNC(=S)N1CCCN(c2nc3cc(C)ccc3cc2C#N)CC1,-20%
COc1ccc(S(=O)(=O)N=C2C=C(C)C(=O)C(C)=C2)cc1,-1%
Cc1ccc2c(CC(=O)OCC(=O)Nc3ccc(Cl)cn3)coc2c1,12%
Cc1cc(C)nc(NN=C2CCCC2)n1,3%
COc1ccc(CN2C(=O)N(c3ccc(C)cc3)C(=O)C2CC(=O)Nc2ccccc2)cc1OC (stereo not given),-27%
CC(C)Cc1cc(C(=O)N2CCCC(C(=O)c3cc(F)ccc3F)C2)n(C)n1 (stereo not given),-6%
CCN(CC)S(=O)(=O)c1ccc(OCCNS(C)(=O)=O)cc1,28µM*
CCOC(=O)c1cnc2c(C)cc(Cl)cc2c1N1CCN(C)CC1,-1%
Cc1ccc(C(=O)Nc2cccc(-c3cnc4ccccc4n3)c2)cc1,10%
O=C1CSC2(C(=O)N3CCCc4cccc2c43)N1c1cccc(C(F)(F)F)c1 (stereo not given),-6%
O=S(=O)(NCc1ccccn1)c1ccc(F)cc1,-9%
Cc1nn(-c2ccc(N3CCCCC3)nn2)c(C)c1CCC(=O)Nc1ccc(F)cc1,-7%
C[C@@H]1COC(=O)[C@@H](CC(=O)OC(C)(C)C)C/C=C\C[C@H](CC(=O)N(CCO)Cc2ccccc2)C(=O)N1,12%
CC(=O)Oc1ccc(Cl)cc1/C=C/c1ccc2ccccc2n1,-8%
O=C1N(c2cccc3ccccc23)C(c2ccccc2)N2CCCN12 (stereo not given),8%
O=C(Nc1ccc2nc(SCC(=O)N3CCCc4ccccc43)sc2c1)c1ccc(F)cc1,6%
COc1ccc(/C=N/NC(=O)CNC(=O)c2ccncc2)cc1OC,15%
O=C(O/N=C(/c1ccccc1)c1ccncc1)c1ccc(F)cc1,5%
C=CCn1c(=O)c2ccccc2n2c(SCC(=O)N3CCCc4ccccc43)nnc12,5%
COC(=O)c1ccc(CNC(=O)c2sccc2-c2ccccc2)cc1,-17%
CC(C)CC(=O)Nc1ccccc1N1CCN(C(=O)c2ccccc2)CC1,-6%
O=C1C=C(N2CCCCC2)c2ccccc2C1=O,-20%
CCCOc1ccc(C(=O)Nc2cc3c(cc2N2CCCCC2)n(C)c(=O)n3C)cc1,4%
Cc1c(Cl)cccc1-c1ccc(CNc2ccc3[nH]c(=O)[nH]c3c2)o1,1%
c1ccn2c(SCc3cn4ccsc4n3)nnc2c1,-1%
Cn1c(SCC(=O)NCc2ccc(F)cc2)nc2ccccc21,-4%
O=C(Cc1ccccc1)Nc1ccc(C(=O)Nc2ccc(O)cc2)cc1,-8%
CC(=O)Nc1ccc2c(c1)C(=O)N(C1CCCCC1)C2=O,-11%
NS(=O)(=O)c1ccc(NC(=O)c2ccc(Cl)c(S(=O)(=O)NCc3ccco3)c2)cc1,-5%
Cc1sc2ncn(CC(=O)N3CCC(C(N)=O)CC3)c(=O)c2c1S(=O)(=O)N1CCOCC1,-7%
CC1(C)CC(NC2C3CC4CC(C3)CC2C4)CC(C)(C)N1 (stereo not given),7%
Cc1[nH]nc2nc(SCC(=O)NCC3CCCO3)n(-c3ccc(Br)cc3)c(=N)c12 (stereo not given),9%
COc1ccc2cc3cc(C(=O)NCCN4CCc5ccccc5C4)oc3nc2c1,-2%
COc1ccccc1OCc1ccc(C(=O)NC(C)(C)C)o1,0%
Cc1nc(-c2ccc(F)cc2)sc1CCNC(=O)c1ccc(OC(C)C)cc1,-4%
O=S(=O)(NC(=S)NC1CCCCC1)c1cccs1,?
CCCCn1nc(C(=O)N(CCOC)c2c(N)n(CCCC)c(=O)[nH]c2=O)c2ccccc2c1=O,14%
CCC(=O)Nc1cccc(NC(=S)NC(=O)c2ccc(C)cc2)c1,-6%
CC(CCc1ccccc1)NC(=O)CNC(=O)c1cccs1 (stereo not given),-10%
CCc1noc(C)c1C(=O)NCCc1ccc(Cl)cc1,-6%
Cc1ccc(OCc2nc(-c3ccc(C(=O)N4CCN(c5cccc(C(F)(F)F)c5)CC4)cc3)oc2C)cc1,2%
# The results go on:
SMILES,VDR inhibitor
Cc1sc2nc(SCC(=O)Nc3ccc(Cl)c(C(=O)O)c3)[nH]c(=O)c2c1C,-12%
COc1cc2c(cc1OC)C(C)N(C(=O)c1cc3c(s1)-c1c(C)cccc1OC3)CC2 (stereo not given),-4%
CCCn1c(=O)c(C(=O)NCc2ccncc2)c(O)c2ccccc21,-3%
c1ccc(OCCOc2ncnc3sccc23)cc1,-1%
NNC(=O)CCc1ccc(S(=O)(=O)N2CCOCC2)cc1,-11%
COc1ccc(CCNC(=O)C2(C)CCC(=O)N2Cc2ccc3c(c2)OCO3)cc1OC (stereo not given),-17%
N#CC1=C(N)Nc2ncnn2C1c1ccc(F)cc1 (stereo not given),-15%
O=[N+]([O-])c1ccc2nc(/C=C/c3ccc(Cl)cc3)[nH]c2c1,-15%
Cc1c(C(=O)Nc2ccc(Cl)cc2)c2ccccn2c1C(=O)c1ccc([N+](=O)[O-])cc1,22%
CCc1ccc(C(=O)c2cn(CC(=O)Nc3ccc(OC)cc3)c3cc4c(cc3c2=O)OCO4)cc1,-13%
COc1ccccc1Cn1nnc2c(=O)[nH]c(C3CCN(C(=O)c4ccc(C)cc4)CC3)nc21,1%
O=S(=O)(NCc1cc(-c2ccccc2)no1)c1ccc(Cl)cc1,-7%
COc1ccc(N(C(=O)c2ccc(C)cc2)S(=O)(=O)c2cccs2)cc1,-17%
O=C(NCc1ccco1)/C(=C/C=C/c1ccccc1)NC(=O)c1ccco1,-28%
CC(C)C(NS(=O)(=O)c1cccc2nsnc12)C(=O)N1CCc2ccccc2C1 (stereo not given),14%
CCOC(=O)N1CCN(C2=C(NS(=O)(=O)c3ccc(NC(C)=O)cc3)C(=O)c3ccccc3C2=O)CC1,?
COc1cccc(C(=O)NCC(=O)N/N=C/c2ccc3c(c2)OCO3)c1,10%
CC(CC(=O)Nc1nnc(C(C)(C)C)s1)c1ccccc1 (stereo not given),?
Cc1ccc(-c2nc3c(cnn3-c3ccccc3)c(=O)n2-c2ccc(Cl)cc2)cc1,11%
O=C(O)c1cc(NN=Nc2cccc(S(=O)(=O)O)c2)cc([N+](=O)[O-])c1,-17%
CCCCOC(=O)CSc1nc(N)c(C#N)c(-c2ccc(OCC)cc2)c1C#N,-4%
O=S1(=O)c2ccccc2N(Cc2ccccc2Cl)c2ccccc21,11%
COc1cc([N+](=O)[O-])ccc1NC(=O)C1C2C=CC(C2)C1C(=O)O (stereo not given),5%
CCc1c(C(=O)Nc2ccccc2C(N)=O)csc1C,-7%
O=C(O)c1cccc(S(=O)(=O)NCC2COc3ccccc3O2)c1 (stereo not given),-4%
COc1cc(/C=C/c2nc(C#N)c(NC(C)c3ccccc3)o2)cc(OC)c1OC (stereo not given),-4%
Cc1ccc([N+](=O)[O-])c(Oc2ncnc3c2oc2ccccc23)c1,-10%
Cc1ccc(NCc2nc3ccccc3n2C)c(C)c1,-11%
CC1=C(C(=O)OCC2CCCO2)C(c2coc3ccccc3c2=O)C2=C(CCCC2=O)N1 (stereo not given),-7%
COc1ccc(-c2cc(C(=O)NC(C)c3ccccn3)c3ccccc3n2)cc1OC (stereo not given),?
O=c1c2ccccc2nc(SCc2cn3ccsc3n2)n1-c1ccccc1,-12%
CSCCC(NS(=O)(=O)c1ccc2c(c1)oc(=O)n2C)C(=O)NCc1ccccc1 (stereo not given),-4%&-7%
O=[N+]([O-])c1cccc(S(=O)(=O)N2CCN(c3ccccn3)CC2)c1,5%

# Entries above marked active in VDR inhibitor.
SMILES,VDR inhibitor
CCN(CC)S(=O)(=O)c1ccc(OCCNS(C)(=O)=O)cc1,28µM*
